Bioassay records as filed in PubChem BioAssay.
Rango-impB inh: inhibitors of Rango-importin beta complex formation; Q14974; Rango CFP/YFP FRET sensor + importin beta, 45 min; Potency, µM (doses to about 92.2 µM), inactives show at the highest dose inhibition of complex formation; 0.031% of 340,000 active; active = rising FRET ratio curve, often small or poorly fitted; inconclusive = mostly compound fluorescence or quenching in the first reads; inactive = flat curves in all reads;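 note: potency is the fitted concentration of half-maximal effect; 0% = DMSO wells and 100% = buffer wells lacking importin beta; nearly all actives have a fitted effect of over 15% in size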
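Inhibition scored from the CFP 486 nm/YFP 530 nm FRET ratio 45 min after adding 0.125 microM importin beta to 50 nM Rango biosensor preincubated 5 min with compound (room temperature, PBS with DTT, Tween-20, BSA). No-importin wells as positive control.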
Rango release inh: prevents RanGTP from dissociating the Rango-importin beta complex. 0.071% of 340,000 active. O95149+P62826. Potency, µM (highest dose often 46.1 µM), for the others: at the top dose activity change, negative = inhibition. Biochemical FRET Rango-importin beta, RanGTP-induced dissociation; active means falling FRET ratio curve, often poorly fitted, with flat reads before Ran was added; inconclusive means other falling curves, or compound fluorescence or quenching; inactive means flat or rising ratio curve;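 note: potency is the fitted concentration of half-maximal effect; % of control where 0% means no effect; nearly all actives have a fitted effect of over 45% in size; -100% = wells without RanGTP and RCC1; the record marks most hits as doubtful in a second field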
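Compounds sat 5 min at room temperature with 0.1 uM Rango biosensor plus 0.25 uM importin beta, then FRET pre-read. RanGTP-RCC1 (0.6 uM Ran, 2mM GTP, 0.2 uM RCC1) added for 45 min, and the CFP/YFP post-read measured blocked complex dissociation.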
miR-21 FLuc: raises the signal of a miR-21 reporter; HeLa miR-21 FLuc reporter, luciferase, 48 h; Potency, µM (highest dose often 38.3 µM), without a hit: top-dose reporter change, positive = more light; 340,000 tested, under 10 active; AID 2288; active = well fitted rising curve with a large enough effect; inconclusive = small, poorly fitted or top-dose-only effect; inactive = no such curve, though single readings can be large or run the other way;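 note: % of control where 0% means no effect; miR-21 action dims this reporter so a rising signal means less miR-21 action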
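Compounds were titrated across several concentrations (up to approximately 40 uM) and incubated 48 hours with HeLa miR-21-FLuc reporter cells (miR-21 target sequence downstream of FLuc, endogenous miR-21). Readout was firefly luciferase luminescence after lytic detection reagent.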
GLA inh pH 4.5: blocks human alpha-galactosidase A at pH 4.5. P06280. purified enzyme, 4-MU-alpha-Gal fluorescence, pH 4.5. activity change, negative = inhibition, % at 105 µM. 230,000 tested, under 10 active. AID 1467; inconclusive = small, poorly fitted or top-dose-only inhibition, or a rising curve; inactive = flat fitted curve, though single readings scatter; no compound was filed as active;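 note: 0% = full activity with enzyme and -100% = basal without enzyme; dose as in the result columns while the protocol names 77 µM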
Target sequence (P06280 whole entry, looked up): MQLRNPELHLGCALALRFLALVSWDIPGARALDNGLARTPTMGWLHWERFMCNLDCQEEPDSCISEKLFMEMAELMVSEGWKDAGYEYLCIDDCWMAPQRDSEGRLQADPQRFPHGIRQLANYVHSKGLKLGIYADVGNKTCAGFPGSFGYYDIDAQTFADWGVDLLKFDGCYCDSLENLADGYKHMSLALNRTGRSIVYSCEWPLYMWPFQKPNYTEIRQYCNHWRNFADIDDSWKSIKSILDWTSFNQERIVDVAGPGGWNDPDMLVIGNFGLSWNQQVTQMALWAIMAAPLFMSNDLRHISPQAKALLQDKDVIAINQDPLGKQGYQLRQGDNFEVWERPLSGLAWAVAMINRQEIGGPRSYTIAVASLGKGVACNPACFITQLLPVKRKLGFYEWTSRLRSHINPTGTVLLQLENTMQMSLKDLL
The depositor's hits bear a star; ? = inconclusive; / = no result given; & = joins results of further samples.

molecule	Rango-impB inh	Rango release inh	miR-21 FLuc	GLA inh pH 4.5
NS(=O)(=O)c1cccc(NC(=O)COC(=O)C2CCCCC2)c1	0.2%	-4%	0%	-7
Cc1ccc(NC2=C(Cl)C(=O)OC2OC(C)C)c(C)c1 (stereo unspecified)	-3.5%	1%	-6%	-3
Cc1ccc(C(=O)NC(=S)Nc2ccc3[nH]c(=O)[nH]c3c2)c(C)c1	0.0%	-2%	-3%	-9
COc1ccc(/C=C/C(=O)OCC(=O)Nc2ccc3[nH]c(=O)[nH]c3c2)cc1OC	-2.6%	17%	/	/
OCC1(Cc2ccccc2)CCN(Cc2cc3ccccc3o2)CC1	-1.2%	-1%	8%	1
CS(=O)(=O)c1ccccc1C(=O)N(CCC1=CCCCC1)c1c(N)n(Cc2ccccc2)c(=O)[nH]c1=O	2.2%	-16%	/	/
CCC(=O)NC(NC(=S)Nc1cccc2cccnc12)C(Cl)(Cl)Cl (stereo unspecified)	-1.5%	16%	1%	0
O=C1NC(SCCCF)=N/C1=C/c1ccc(-n2cncn2)cc1	?	?	0%	-7
CCOc1ccc(-n2ccnc(SCC(=O)NCCc3ccccc3)c2=O)cc1	1.8%	21%	/	/
Cc1ccsc1C1C(C#N)=C(N)OC2=C1C(=O)CC(C)(C)C2 (stereo unspecified)	-1.9%	-2%	1%	-9
Cc1cc(C)c(NC(=O)CN2C(=O)NC3(CCCc4ccccc43)C2=O)c(Cl)c1 (stereo unspecified)	-2.4%	-15%	/	/
Cc1ccc(Nc2ccc([N+](=O)[O-])ccc2=O)cc1	0.4%	19%	/	/
Cc1ccn2c(=O)nc(SCC(=O)N3CCCc4ccccc43)nc2c1	-1.2%	-2%	/	/
COc1ccc(OCCNc2c([N+](=O)[O-])c(=O)oc3ccccc23)cc1	-14%	10%	-2%	-1
CCOC(=O)c1sc(N2C(=O)C(O)=C(C(=O)c3ccc(C)o3)C2c2cccc([N+](=O)[O-])c2)nc1C (stereo unspecified)	?	?	-10%	/
O=C1CCC(=O)N1CN(Cc1ccco1)CN1C(=O)CCC1=O	-2.5%	-6%	-2%	1
Cn1c(=O)c2c(O)cc(=O)[nH]c2n(-c2ccccc2)c1=O	0.2%	-4%	-2%	7
O=C(CCc1nnc(Cc2ccc(-c3ccccc3)cc2)o1)NCCc1ccccn1	-1.6%	-4%	-6%	-9
O=C(NC(NCC1CCCO1)C(Cl)(Cl)Cl)c1cccc2ccccc12 (stereo unspecified)	0.3%	9%	7%	-7
Cc1ccc(S(=O)(=O)N2CCN(C(=O)N(c3ccccc3)c3ccccc3)CC2)cc1	-0.1%	31%	0%	0
CC(C)c1ccc(CNC(=O)C(=O)NCC2CCCO2)cc1 (stereo unspecified)	3.1%	-3%	0%	7
NC(=O)c1ccc(NC(=O)CSc2nnc(-c3ccncc3)n2Cc2ccco2)cc1	3.9%	25%	-1%	5
Cc1ccc(NC(=O)c2ccc(NCCCN3CCC(C)CC3)c([N+](=O)[O-])c2)cc1F	?	5%	-7%	2
CC[C@]1(c2ccccc2C)ON(c2ccccc2C(F)(F)F)C1=O	-2.1%	-5%	/	/

Structural class: those above containing fluorine (3)
molecule	Rango-impB inh	Rango release inh	miR-21 FLuc	GLA inh pH 4.5
O=C1NC(SCCCF)=N/C1=C/c1ccc(-n2cncn2)cc1	?	?	0%	-7
Cc1ccc(NC(=O)c2ccc(NCCCN3CCC(C)CC3)c([N+](=O)[O-])c2)cc1F	?	5%	-7%	2
CC[C@]1(c2ccccc2C)ON(c2ccccc2C(F)(F)F)C1=O	-2.1%	-5%	/	/

New compounds follow:
molecule	Rango-impB inh	Rango release inh	miR-21 FLuc	GLA inh pH 4.5
O=C(Nc1ccc2[nH]ncc2c1)c1ccccc1Cl	-1.3%	12%	-1%	/
Oc1cccc2ccc(Nc3ccccn3)nc12	0.2%	2%	?	-5
CCN(CC)c1nc(C)nc2c1sc(=S)n2C	4.5%	-16%	-4%	6
O=C(CN1C(=O)c2ccccc2S1(=O)=O)Nc1ccccc1	1.5%	2%	7%	/
O=C(CCNS(=O)(=O)c1ccc(OC(F)(F)F)cc1)NCCc1c[nH]c2ccccc12	0.6%	-10%	/	/
COc1ccccc1-n1c(=S)[nH]c2c(sc(=S)n2-c2ccc(C)cc2C)c1=O	11%	-2%	-1%	0
C=CCc1cc(/C=C2/NC(=S)NC2=O)cc(OC)c1O	?	?	2%	-8
Cc1cc(C)cc(Nc2ccc([N+](=O)[O-])nc2[N+](=O)[O-])c1	2.4%	5%	11%	-2
COc1ccc(-c2nc(CS(=O)(=O)CC(=O)NCc3cccc(F)c3)c(C)o2)cc1	5.1%	16%	0%	/
O=C(Nc1ccc(Br)c2ccccc12)c1ccc2ccccc2c1O	?	?	28%	-12
Cc1cc(-c2nn(-c3ccccc3F)cc2CNCCc2cnc[nH]2)c(C)s1	-2.3%	-1%	-18%	-6
Cc1cc(C)cc(NC(=S)N=Nc2c(O)n(C)c3ccc(S(=O)(=O)N4CCOCC4)cc23)c1	-0.6%	7%	-10%	?

Following part:
Order of results: Rango-impB inh | Rango release inh | miR-21 FLuc | GLA inh pH 4.5
> CCOC(=O)C1=C(CC)Nc2ccccc2N=C1NC(=O)Cn1cnc2ccccc2c1=O
 : -2.7% | 7% | -3% | 6
> COc1ccc(Cc2nnc3n2N=C(c2cc4ccccc4o2)CS3)cc1OC
 : ? | 2% | / | /
> Cc1cnc(C(=O)OCC(=O)NC23CC4CC(CC(C4)C2)C3)cn1
 : 3.6% | 8% | -15% | 16
> CCN(Cc1ccccc1)C(=O)CCS(=O)(=O)c1ccc2c(c1)oc(=O)n2C
 : -0.9% | 0% | -2%&-7% | /
> CCN(CCCNC(=O)CCCn1c(=O)[nH]c2ccccc2c1=O)c1cccc(C)c1
 : -0.5% | -3% | -9% | -11
> Cc1cc(N2C(=O)C(O)=C(C(=O)c3cc4ccccc4o3)C2c2cccc(Cl)c2)no1 (stereo unspecified)
 : ? | ? | -10% | /
> CC(=O)N1C(=O)C2(Nc3ccccc3N2)c2ccccc21
 : -1.6% | 2% | -6% | 7
> CCOc1ccc(NC(=O)N2CCC(NC(=O)C(Cc3ccccc3OC)NC(C)=O)CC2)cc1 (stereo unspecified)
 : 2.4% | 10% | 1% | /
> O=C(N/N=C1\CCCc2ccccc21)C(O)c1ccccc1 (stereo unspecified)
 : 1.2% | -7% | -5% | -6
> CN(Cc1nc(-c2cnccn2)no1)Cc1n[nH]c2c1CCCCC2
 : -3.8% | -15% | -5% | 2
> CC(C)NC(=O)N(C)C[C@H]1Oc2ccc(NC(=O)Nc3ccc4c(c3)OCO4)cc2C(=O)N([C@H](C)CO)C[C@@H]1C
 : 0.1% | 1% | / | /
> COc1cccc(-c2cc(C(=O)N3CCN(Cc4ccc5c(c4)OCO5)CC3)on2)c1
 : -0.5% | -3% | 6% | /
> Cc1nn(-c2ccccc2)c2sc(C(=O)OC3CCOC3=O)cc12 (stereo unspecified)
 : -3.0% | -13% | 0% | 6
> COc1cccc(N2CCN(C(=O)CN(c3ccc(C)cc3)S(=O)(=O)c3c(C)n[nH]c3C)CC2)c1
 : ? | -21% | -5% | 3
> Cc1ccc(/C=N\n2c(-c3ccccc3)n[nH]c2=S)s1
 : 0.1% | 3% | -8% | 0
> Cc1cccc(-c2noc(CNC(=O)c3ccoc3C)n2)c1
 : ? | ? | -14% | /
> c1cc2c3c(cccc3c1)NC1(CCCCCC1)N2
 : -0.1% | 0% | -3% | -7
> Cc1nc2c(c(=O)n1Cc1ccco1)c1nc3ccccc3nc1n2Cc1ccccc1
 : / | / | -6% | 8
> Cc1cc[n+]2n1CC(O)C2 (stereo unspecified)
 : -0.7% | -8% | 0% | -3
> CC(=O)OC(COc1ccc(F)cc1)Cn1cnc2ccccc21 (stereo unspecified)
 : 2.0% | -2% | -22% | 2
> O=C(Nc1ncccc1O)c1ccc(Cl)c(S(=O)(=O)N2CCCCCC2)c1
 : 1.2% | -11% | / | /
> CN(Cc1cccc(-n2cccn2)c1)Cc1cn(C)nc1-c1ccccc1F
 : -1.4% | -19% | 0% | -8
> CN(C(=O)CCNC(=O)N1CC(=O)Nc2ccccc21)C1CCCCC1
 : 0.3% | 5% | 4% | /
> CCn1nc(CC(=O)Nc2ccc(-n3cnnn3)c(C)c2)c2ccccc2c1=O
 : -0.7% | 0% | -10% | 1
> Cc1nc(CN2CCN(Cc3nc(C(c4ccccc4)c4ccccc4)no3)CC2)cs1
 : -1.8% | 2% | 1% | 4
> O=[N+]([O-])c1ccc(CN2CCC(Cc3ccccc3)CC2)cc1
 : -1.3% | -3% | 0% | /
> CCCOc1ccc2c(c1)C(=NN=C(N)N)c1cc(OCCC)ccc1-2
 : 4.2% | -14% | ? | /
> Cc1cc(C)c2nc(N3CCOCC3)c(C#N)cc2c1
 : ? | ? | -2% | /
> COc1ccccc1NS(=O)(=O)c1cc(NC(=O)CCC(=O)c2cccs2)ccc1Cl
 : ? | 27% | 10% | -7
> CC(=O)Nc1nc(C)c(C(C)=O)s1
 : -2.9% | 2% | 4% | 1
> CCC1(c2ccccc2)NC(=O)N(CC(=O)Nc2ccccc2N2CCCC2)C1=O (stereo unspecified)
 : 3.0% | 8% | / | /
> O=S(=O)(NCCOc1ccccc1F)c1ccc(Cl)cc1F
 : -0.5% | -16% | / | /
> N/C(=N\OC(=O)CCCOc1ccccc1)c1ccc(Br)cc1
 : -0.5% | -1% | -8% | -4

Of the compounds above, 19 have a halogen.
Order of results: Rango-impB inh | Rango release inh | miR-21 FLuc | GLA inh pH 4.5
> Cc1ccc(NC2=C(Cl)C(=O)OC2OC(C)C)c(C)c1 (stereo unspecified)
 : -3.5% | 1% | -6% | -3
> CCC(=O)NC(NC(=S)Nc1cccc2cccnc12)C(Cl)(Cl)Cl (stereo unspecified)
 : -1.5% | 16% | 1% | 0
> O=C1NC(SCCCF)=N/C1=C/c1ccc(-n2cncn2)cc1
 : ? | ? | 0% | -7
> Cc1cc(C)c(NC(=O)CN2C(=O)NC3(CCCc4ccccc43)C2=O)c(Cl)c1 (stereo unspecified)
 : -2.4% | -15% | / | /
> O=C(NC(NCC1CCCO1)C(Cl)(Cl)Cl)c1cccc2ccccc12 (stereo unspecified)
 : 0.3% | 9% | 7% | -7
> Cc1ccc(NC(=O)c2ccc(NCCCN3CCC(C)CC3)c([N+](=O)[O-])c2)cc1F
 : ? | 5% | -7% | 2
> CC[C@]1(c2ccccc2C)ON(c2ccccc2C(F)(F)F)C1=O
 : -2.1% | -5% | / | /
> O=C(Nc1ccc2[nH]ncc2c1)c1ccccc1Cl
 : -1.3% | 12% | -1% | /
> O=C(CCNS(=O)(=O)c1ccc(OC(F)(F)F)cc1)NCCc1c[nH]c2ccccc12
 : 0.6% | -10% | / | /
> COc1ccc(-c2nc(CS(=O)(=O)CC(=O)NCc3cccc(F)c3)c(C)o2)cc1
 : 5.1% | 16% | 0% | /
> O=C(Nc1ccc(Br)c2ccccc12)c1ccc2ccccc2c1O
 : ? | ? | 28% | -12
> Cc1cc(-c2nn(-c3ccccc3F)cc2CNCCc2cnc[nH]2)c(C)s1
 : -2.3% | -1% | -18% | -6
> Cc1cc(N2C(=O)C(O)=C(C(=O)c3cc4ccccc4o3)C2c2cccc(Cl)c2)no1 (stereo unspecified)
 : ? | ? | -10% | /
> CC(=O)OC(COc1ccc(F)cc1)Cn1cnc2ccccc21 (stereo unspecified)
 : 2.0% | -2% | -22% | 2
> O=C(Nc1ncccc1O)c1ccc(Cl)c(S(=O)(=O)N2CCCCCC2)c1
 : 1.2% | -11% | / | /
> CN(Cc1cccc(-n2cccn2)c1)Cc1cn(C)nc1-c1ccccc1F
 : -1.4% | -19% | 0% | -8
> COc1ccccc1NS(=O)(=O)c1cc(NC(=O)CCC(=O)c2cccs2)ccc1Cl
 : ? | 27% | 10% | -7
> O=S(=O)(NCCOc1ccccc1F)c1ccc(Cl)cc1F
 : -0.5% | -16% | / | /
> N/C(=N\OC(=O)CCCOc1ccccc1)c1ccc(Br)cc1
 : -0.5% | -1% | -8% | -4

The list is partial; rates above refer to the full screens.
